Screens deposited in PubChem BioAssay by National Center for Advancing Translational Sciences (NCATS).
TRPML1 ag: activates the human TRPML1 channel; Q9GZU1; TRPML1-expressing cells, Ca2+ dye fluorescence, FDSS; host cell line not named in the record; reference of the full effect not given here; activation, % (no concentration beside the values); hit rate 0.12% among 410,000; AID 624414; in the data active = activation above about 50%; inconclusive = about 30% to 50%; inactive = below about 30%; note: 0% is about no effect; the text of the record puts the active cut at 80%
Target sequence (Q9GZU1 whole entry, looked up): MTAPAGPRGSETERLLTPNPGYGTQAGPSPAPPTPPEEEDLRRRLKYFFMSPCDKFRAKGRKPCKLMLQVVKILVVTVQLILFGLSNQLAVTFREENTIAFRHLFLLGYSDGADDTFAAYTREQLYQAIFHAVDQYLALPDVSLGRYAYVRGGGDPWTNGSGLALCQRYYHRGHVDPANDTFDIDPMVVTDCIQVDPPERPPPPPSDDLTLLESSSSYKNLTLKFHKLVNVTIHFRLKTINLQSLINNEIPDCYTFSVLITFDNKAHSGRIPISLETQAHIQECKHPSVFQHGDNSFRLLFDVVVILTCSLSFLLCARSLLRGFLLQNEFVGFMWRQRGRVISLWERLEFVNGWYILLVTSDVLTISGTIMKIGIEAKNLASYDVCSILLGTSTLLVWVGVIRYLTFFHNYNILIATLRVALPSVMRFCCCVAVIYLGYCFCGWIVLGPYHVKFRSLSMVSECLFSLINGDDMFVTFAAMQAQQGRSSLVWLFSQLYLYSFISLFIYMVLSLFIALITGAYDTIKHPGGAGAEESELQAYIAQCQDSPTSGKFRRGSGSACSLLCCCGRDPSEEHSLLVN
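Kinetic FDSS Ca2+ read in Tet-induced TRPML1-DL cells (ABD Ca8 dye plus quencher, 45-90 min RT loading): baseline, then compound, then 110 s agonist window; EC80 agonist 54-4 at 4uM final added afterwards for a 110 s antagonist window.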
PINK1 expr mod: modulators of PINK1 expression; PINK1 immunofluorescence, high-content cytometry, 24 h; Potency, µM (titrated, usually from 76.6 µM), for inactives: at the highest dose activation (PINK1 increase), actives largely listed as activators; hit rate 0.2% among 410,000; AID 624263; active = well fitted activation curve with a large enough effect; inconclusive = small, poorly fitted or top-dose-only effect; inactive = flat fitted curve, though single readings scatter; cell line not stated here;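 note: potency is the fitted concentration of half-maximal effect; % of control where 0% means no effect; nearly all actives have a fitted effect of over 65% in size; a mitochondrial uncoupler was the plate control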
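PINK1 protein, normally rapidly degraded, was detected by immunofluorescence after 24 hour compound treatment of a stable cell line. Titration data (5 concentrations) came from laser-scanning cytometry, with CCCP-treated wells as controls.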
An asterisk follows results filed as active; u = inconclusive.

SMILES,PINK1 expr mod,TRPML1 ag
O=C(NCCc1ccccc1)c1cc(-c2ccccc2)nc2n[nH]c(-c3ccccc3)c12,5.3%,2.7
Cn1c(C(=O)NCc2ccccc2F)cc2oc3ccccc3c21,2.6%,3.1
COc1ccc(-c2nc3ccccc3o2)cc1NC(=O)COc1c(C)cc(Cl)cc1Cl,15%,0.3
COC(=O)c1ccc(C2c3c(-c4ccccc4O)n[nH]c3C(=O)N2Cc2cccnc2)cc1 (stereo not drawn),-2.4%,-0.8
Cc1cc(C)cc(OCC(=O)Nc2c(C(=O)c3ccccc3)oc3ccccc23)c1,4.0%,1.5
COc1ccc(S(=O)(=O)NCC(c2ccco2)S(=O)(=O)c2ccc(C)cc2)cc1F (stereo not drawn),0.5%,2.0
CCOc1ccc(CN2CCN(Cc3ccc4c(c3)c3ccccc3n4CC)CC2)cc1,1.6%,4.9
Cc1ccccc1N1CC(c2nc3ccccc3n2Cc2ccc(Br)cc2)CC1=O (stereo not drawn),-1.2%,1.2
COc1ccc(N(Cc2cccs2)C(=O)c2ccco2)cc1,4.4%,1.4
CCOc1ccc(Nc2oc(-c3ccc(COc4ccc(C)cc4)o3)nc2C#N)cc1,2.3%,-0.3
Cc1ccc(S(=O)(=O)c2c(C)nn(-c3ccccc3)c2OC(=O)c2ccccc2F)cc1,0.4%,-0.5
Cc1c(Cl)cccc1NC(=O)CCOc1ccccc1,2.2%,-1.4
CCOC(=O)c1c(C)c(C(=O)NCCc2ccc(OC)cc2)c(C)n1C,0.6%,-1.5
CCOC(=O)c1c(C)[nH]c(C)c1S(=O)(=O)N1CCCC(C(=O)Nc2cccc(C)n2)C1 (stereo not drawn),0.8%,1.0
CCc1ccc(NC(=O)CC(c2cc(OC)c(OC)c(OC)c2)N2Cc3ccccc3C2=O)cc1 (stereo not drawn),-1.7%,2.6
CCCCCCC[n+]1c(/C=C/c2ccc(N(C)C)cc2)sc2ccccc21,u,18
CCN(Cc1ccccc1)C(=O)C1CCN(S(=O)(=O)c2ccc3c(c2)CCCN3C(C)=O)CC1,0.2%,0.4
Cc1cc(-c2nc3ncccc3o2)ccc1NC(=O)COc1ccc(C(C)(C)C)cc1,9.7%,1.0
Cc1ccc(C)c(N2CCN(CCCNc3ncnc4onc(-c5ccc(Cl)cc5)c34)CC2)c1,-5.3%,0.3
Cc1ccc2nc(-c3cccc(NC(=O)c4ccc(Br)o4)c3)oc2c1,6.6%,2.3
COc1cccc(-n2c(SCC(=O)Nc3nnc(C)s3)nc3c([nH]c4ccccc43)c2=O)c1,-0.3%,2.5
O=c1c2sc3ccccc3c2n(Cc2cccc(F)c2)c(=O)n1Cc1ccccc1,1.2%,0.4
COc1ccccc1CNC(=O)c1cnc(N(C)C)nc1,1.5%,1.8
CC(Sc1nccn1C)C(=O)Nc1ccccc1C#N (stereo not drawn),1.9%,1.4
CCN(CC)CCNC(=O)c1ccc2c(c1)sc1nc(-c3ccc(F)cc3)cn12,2.0%,1.2
CN(C)c1ccc(C(=O)Nc2ccc(-c3nc4ccccc4o3)cc2)cc1,3.4%,0.1
COc1ccccc1NC(=O)CN1C(=O)C2(SCC(=O)N2c2ccc(F)c(F)c2)c2ccccc21 (stereo not drawn),-4.8%,1.3
COc1ccc(CNC(=O)c2ccc(-c3nc(CS(=O)c4ccc(C)cc4)c(C)o3)cc2)cc1 (stereo not drawn),6.2%,0.8
Cc1cccc(CNC(=O)CN2C(=O)C3CCCCN3c3ccc(C(=O)N4CCCC4)cc32)c1 (stereo not drawn),0.8%,-0.5
CCOc1ccc(NC(=O)c2c(NCc3cccc(OC)c3OC)sc3c2CCC3)cc1,-1.0%,-0.2

Reprinted from the part before: three entries; new compounds follow.
SMILES,PINK1 expr mod,TRPML1 ag
COc1ccc(CNC(=O)c2ccc(-c3nc(CS(=O)c4ccc(C)cc4)c(C)o3)cc2)cc1 (stereo not drawn),6.2%,0.8
Cc1cccc(CNC(=O)CN2C(=O)C3CCCCN3c3ccc(C(=O)N4CCCC4)cc32)c1 (stereo not drawn),0.8%,-0.5
CCOc1ccc(NC(=O)c2c(NCc3cccc(OC)c3OC)sc3c2CCC3)cc1,-1.0%,-0.2
O=C(CSc1nccn1Cc1ccco1)Nc1ccc(OC(F)(F)F)cc1,17%,0.5
O=C(Nc1ccccc1C(F)(F)F)n1ncc2cc(Cl)ccc21,-0.7%,0.3
O=C(Nc1ccc2nc(SCC(=O)N3CCOCC3)sc2c1)c1ccccc1Cl,1.1%,1.7
Cc1ccc(-c2nnn3c2nc(NCCc2ccc(Cl)cc2)c2ccccc23)cc1,-0.6%,-0.9
CCOC(=O)c1ccc(N2CCN(c3cccc(Cl)c3)CC2)c(NC(=O)Nc2ccc(OC)cc2OC)c1,2.5%,0.0
Cc1cccc(-n2ncc(C(=O)N3CCN(C4CCCCC4)CC3)c2C2CCN(C(=O)OC(C)(C)C)CC2)c1,0.7%,91*
COc1cccc2c1Oc1ncccc1N(C(=O)CCC(=O)NCc1ccc(OC(C)C)cc1)C2,-0.9%,0.2
CCc1nn(CC(=O)N2CCN(c3cccc(Cl)c3)CC2)c(=O)c2cc3sccc3n12,0.7%,0.1
CCc1ccc(CNC(=O)CCc2c(C)nn(-c3ccc(N4CCCCC4)nn3)c2C)cc1,0.6%,-0.2
CCCCOc1cccc(C(=O)N(Cc2sccc2C)C2CCS(=O)(=O)C2)c1 (stereo not drawn),-0.1%,3.6
CC(=O)Nc1ccc(/C=C/c2ccncc2)cc1,2.1%,-0.6
CC1CCCCN1CCCNC(=O)Cn1ncc2c3ccccc3n(C)c2c1=O (stereo not drawn),0.6%,4.8
O=C(CN1C(=O)COc2ccc(S(=O)(=O)N3CCCCCC3)cc21)N1CCN(c2ccccc2F)CC1,2.0%,1.7
O=C(Nc1ccc2nc(SCCOc3ccccc3Cl)sc2c1)c1ccc2c(c1)OCO2,12%,1.1
CCn1ccc2c(OCC(=O)Nc3ccccc3C)cccc2c1=O,2.5%,0.9
Cc1c(Cl)cccc1NS(=O)(=O)c1ccc2[nH]cc(C(=O)NC3CCCC3)c(=O)c2c1,1.8%,2.7
O=C(Nc1c2c(nn1-c1ccc(Cl)cc1)CS(=O)(=O)C2)c1cccc(F)c1,-3.8%,0.8
COc1ccccc1C(=O)NC1(C(F)(F)F)NC(=O)N(CCc2ccccc2)C1=O (stereo not drawn),-0.9%,-0.4
O=S(=O)(c1ccccc1)c1nnn2c1nc(NCc1cccs1)c1sccc12,2.6%,-0.1
COc1ccccc1CNC(=O)c1ccc(-n2c(C)cc3c2CCCC3)cc1,-0.4%,0.5
O=C(O)Cn1nc(N2CCN(c3ccc(F)cc3)CC2)ccc1=O,0.9%,-1.1
O=C(Nc1cc2c(cc1C(=O)c1ccccc1Cl)OCCO2)c1ccccc1,-0.6%,2.7
COc1ccc(OC)c(NC(=O)c2cc(S(=O)(=O)NCCc3ccc(Cl)cc3)ccc2F)c1,-1.1%,0.5
O=C(Cn1c(=O)nc(-c2ccccc2F)c2cc(Cl)ccc21)N1CCN(c2ccccc2F)CC1,-0.7%,0.4
CCOc1ccc(CCNC(=O)c2cn(C)c3ccc(S(=O)(=O)N4CCCCCC4)cc3c2=O)cc1OCC,1.9%,0.1
COc1ccc2sc(N(Cc3cccnc3)C(=O)C3CCCCC3)nc2c1,0.4%,4.0
O=C(C[N+]12CN3CN(CN(C3)C1)C2)c1ccc(O)c(O)c1,0.6%,-0.4
Cc1ccc(OCc2cc(=O)n3cc(C)sc3n2)c(NC(=O)c2ccco2)c1,0.1%,1.7
O=C(CNC(=O)C(c1ccccc1)c1ccccc1)OCC(=O)c1cccc2ccccc12,-0.6%,0.9
CCc1ccc(-n2c(=O)c3c(C)c(C)sc3n(CC(=O)NCc3ccc(C)cc3)c2=O)cc1,1.2%,3.9

Single values from the entries so far:
Value for CCOC(=O)c1ccc(N2CCN(c3cccc(Cl)c3)CC2)c(NC(=O)Nc2ccc(OC)cc2OC)c1 in TRPML1 ag: 0.0
Value for COc1ccc2sc(N(Cc3cccnc3)C(=O)C3CCCCC3)nc2c1 in PINK1 expr mod: 0.4%
Value for CCOc1ccc(CCNC(=O)c2cn(C)c3ccc(S(=O)(=O)N4CCCCCC4)cc3c2=O)cc1OCC in PINK1 expr mod: 1.9%
Value for CCc1ccc(-n2c(=O)c3c(C)c(C)sc3n(CC(=O)NCc3ccc(C)cc3)c2=O)cc1 in PINK1 expr mod: 1.2%
Value for O=C(C[N+]12CN3CN(CN(C3)C1)C2)c1ccc(O)c(O)c1 in TRPML1 ag: -0.4
Value for COc1cccc2c1Oc1ncccc1N(C(=O)CCC(=O)NCc1ccc(OC(C)C)cc1)C2 in TRPML1 ag: 0.2
Value for O=C(Nc1cc2c(cc1C(=O)c1ccccc1Cl)OCCO2)c1ccccc1 in TRPML1 ag: 2.7

Continuation.
SMILES,PINK1 expr mod,TRPML1 ag
COC(=O)c1c(-c2cccs2)csc1NC(=O)c1ccc(Br)cc1,10%,0.1
CCOC(=O)N1CCc2c(sc3c2c(=O)n(-c2ccc(CC)cc2)c(=O)n3CC(=O)c2ccc(F)cc2)C1,3.1%,1.7
CC(C)S(=O)(=O)N1CCN(c2nc(-c3cccs3)nc3ccccc23)CC1,1.5%,0.4
CC1=C(C(=O)OCc2ccc(C)cc2)C(c2ccccc2F)CC(=O)N1 (stereo not drawn),3.9%,2.2
CCOC(=O)c1c(C)oc2nc(C)nc(N3CCN(c4cccc(C)c4C)CC3)c12,1.3%,0.1
COc1ccc(C(=O)N(Cc2ccco2)Cc2ccc(C)o2)cc1,3.5%,4.7
O=C(c1ccc2c(c1)N(Cc1ccc(Cl)cc1)C(=O)c1ccccc1S2=O)N1CCOCC1 (stereo not drawn),1.4%,0.4
COc1ccc(-n2c(/C=C/c3cccc4ccccc34)nc3ccccc3c2=O)cc1Cl,1.3%,0.6
CCN(C(=O)CSc1nc2ccccc2n1Cc1ccccc1C#N)c1ccccc1,-1.1%,-0.6
COc1ccc(NC(=O)CSC2=Nc3ccccc3C3=NC(Cc4ccccc4)C(=O)N23)cc1Cl (stereo not drawn),-0.5%,0.2
CCN(C(=O)C1CCCN(c2ncnc3c2nc2n3CCCCC2)C1)c1cccc(C)c1 (stereo not drawn),1.8%,0.3
CCOC(=O)CCN(c1ccccc1)S(=O)(=O)c1cc(-c2cc(C)no2)ccc1C,2.8%,0.6
COc1ccc(-n2cc(-c3ccccc3)c3c(NCc4cccc(Cl)c4)ncnc32)cc1,6.0%,0.9
COc1ccc(CNC(=O)c2ccc3nc(CCc4ccccc4)oc3c2)cc1OC,-0.6%,0.2
CCC(=O)Nc1nnc(S(=O)(=O)N(C)Cc2ccc(Cl)cc2)s1,0.0%,1.3
O=C(Nc1ccc2oc(-c3cccnc3)nc2c1)c1ccc(Br)cc1,1.3%,-0.8
Cc1cccc(C)c1NC(=O)c1nc(S(C)(=O)=O)ncc1N(Cc1ccc(F)cc1)Cc1ccco1,4.7%,3.1
CCOc1nc(-c2ccccc2)ccc1-c1noc(-c2ccc(C)cc2)n1,3.8%,0.2
CCc1c(C)c2cc3c(c(C)c2oc1=O)OCN(CCc1ccc(OC)c(OC)c1)C3,-0.7%,1.0
Cc1ccc2cccc(NC(=O)C(C)Oc3ccc(Cl)cc3Cl)c2n1 (stereo not drawn),2.8%,1.2
CC(=O)c1c(C)oc2c(Cl)cc(NS(=O)(=O)c3ccc(Cl)cc3)cc12,2.2%,5.4
COc1ccc(-c2c(C)nn3c4c(cnc23)C(=O)CC(c2ccc(C)cc2)C4)cc1 (stereo not drawn),1.5%,0.7
CCOC(=O)c1c(C)oc2nc(C)nc(NCCCN3CCN(c4ccccc4OC)CC3)c12,3.6%,-0.4
Cc1ccccc1Nc1c(-c2ccc(N3CCOCC3)cc2)nc2cccc(C)n12,1.8%,-0.5
Cc1ccc(CCNC(=O)Cn2ncc3c([nH]c4ccc(C)cc43)c2=O)cc1,2.1%,2.2
CCOC(=O)c1cc(S(=O)(=O)Nc2ccccc2)[nH]n1,-0.8%,0.0
CCOc1cccc2sc(N(Cc3cccnc3)C(=O)c3ccc(C#N)cc3)nc12,0.0%,1.6
Cc1nn(CCCC(=O)NCc2cccc(F)c2)c(=O)c2nn(-c3ccccc3)c(C)c12,3.2%,0.7
CCc1cccc(NC(=O)CN(c2ccc(C)cc2)S(=O)(=O)c2cccs2)c1,-0.4%,-0.6
CCOC(=O)c1c(N)n(-c2ccc(C)c(Cl)c2)c2nc3ccccc3nc12,0.7%,0.7
COc1cc2c(C(=O)N3CCN(c4cc(Cl)ccc4C)CC3)cn(CC(C)C)c(=O)c2cc1OC,3.4%,0.4
CCOc1ccc(NC(=O)c2c(NCc3sccc3C)sc3c2CCCCC3)cc1,2.8%,-1.1
Fc1ccc(Cc2cn3cc(-c4ccccc4)nc3s2)cc1,8.8%,1.6
O=C(c1ccc2c(=O)n(Cc3ccc4c(c3)OCO4)c(=S)[nH]c2c1)N1CCN(Cc2ccccc2)CC1,0.1%,0.1
CC(C)Nc1ccc(-c2nc(-c3ccccn3)no2)cc1[N+](=O)[O-],1.8%,-0.5
CCN(CC)S(=O)(=O)c1ccc2nc(NC(=O)c3ccc(Br)o3)sc2c1,1.4%,0.8
CCc1ccc(OCC(=O)Nc2ccc3oc(-c4ccc(OC)cc4)nc3c2)cc1,1.0%,-0.5

This is a subset; the hit share may differ from the screen's.
